Compound activity as filed in PubChem BioAssay.
Methyltransferases: Primary Screen for Target Class Profiling of Small Molecule Inhibitors of Methyltransferases | purified enzyme, MTase-Glo SAH luminescence; hits give low values | calls only at 40 µM | hit rate 3.9% among 25,000 | AID 1745853, 2022; active = -50% or lower on at least one of six enzymes; inconclusive = the cases between; inactive = as a rule above -30% on all six;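 note: enzymes were COMT GAMT GNMT HNMT NNMT and PNMT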
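Each enzyme was reacted with SAM and its substrate, with compounds tested once at 40 uM; SAH formed was read by MTase-Glo luminescence.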
Calls only; i = inactive; u = inconclusive; + = active, no number. % is set by controls: 0 for no effect and ±100 for the full control effect. Only part of the results is shown; rates above refer to the full screens.

compound | Methyltransferases
CCCN1C(=O)c2c(C(=O)NCc3ccc(C)cc3)ncn2CC1(C)C(=O)NCc1ccc(OC)cc1 (centres undefined) | i
C/C(CO)=C1/CCC23COC(C2)C(O)(C(=O)O)CCC13 (centres undefined) | i
CCc1ccc(CNC(=O)c2cc3n(n2)CC(C)(C(=O)NCc2ccccc2)N(C)C3=O)cc1 (centres undefined) | i
CC(C)n1c(=O)c2ccc(C(=O)NC3CCCC3)cc2n2c(=O)n(CC(=O)Nc3ccccc3F)nc12 | i
Cc1cc(C)cc(-c2ccc(CN3CCCC(N[S+](=O)([O-])c4cccs4)C3)cc2)c1 (centres undefined) | i
C[C@@H]1O[C@@H](O[C@H]2[C@H](OC(=O)[C@]34CCC(C)(C)C[C@H]3C3=CCC5[C@@]6(C)CC[C@H](O[C@@H]7O[C@H](CO[C@@H]8OC[C@H](O)[C@H](O)[C@H]8O[C@@H]8OC[C@@H](O)[C@H](O)[C@H]8O)[C@@H](O)[C@H](O)[C@H]7O)C(C)(C)C6CC[C@@]5(C)[C@]3(C)C[C@H]4O)O[C@H](CO)[C@@H](O)[C@@H]2O)[C@H](O[C@@H]2O[C@H](CO)[C@@H](O)[C@H](O)[C@H]2O)[C@H](O)[C@H]1O[C@@H]1OC[C@@H](O)[C@H](O[C@@H]2OC[C@@H](O)[C@H](O)[C@H]2O)[C@H]1O (some centres undefined) | i
CCOCCCNc1nc2c(S(=O)(=O)c3ccc(C)c(C)c3)nnn2c2ccc(Cl)cc12 | i
COCCCNc1nc2c(-c3cccc(C)c3)nnn2c2ccc(Cl)cc12 | i

The last four compounds of the part before open the next one:
compound | Methyltransferases
Cc1cc(C)cc(-c2ccc(CN3CCCC(N[S+](=O)([O-])c4cccs4)C3)cc2)c1 (centres undefined) | i
C[C@@H]1O[C@@H](O[C@H]2[C@H](OC(=O)[C@]34CCC(C)(C)C[C@H]3C3=CCC5[C@@]6(C)CC[C@H](O[C@@H]7O[C@H](CO[C@@H]8OC[C@H](O)[C@H](O)[C@H]8O[C@@H]8OC[C@@H](O)[C@H](O)[C@H]8O)[C@@H](O)[C@H](O)[C@H]7O)C(C)(C)C6CC[C@@]5(C)[C@]3(C)C[C@H]4O)O[C@H](CO)[C@@H](O)[C@@H]2O)[C@H](O[C@@H]2O[C@H](CO)[C@@H](O)[C@H](O)[C@H]2O)[C@H](O)[C@H]1O[C@@H]1OC[C@@H](O)[C@H](O[C@@H]2OC[C@@H](O)[C@H](O)[C@H]2O)[C@H]1O (some centres undefined) | i
CCOCCCNc1nc2c(S(=O)(=O)c3ccc(C)c(C)c3)nnn2c2ccc(Cl)cc12 | i
COCCCNc1nc2c(-c3cccc(C)c3)nnn2c2ccc(Cl)cc12 | i
Cc1cc2c(cc3n2CC(C)(C(=O)NC2CCCCC2)N(CCN2CCN(C)CC2)C3=O)o1 (centres undefined) | i
CC(C)CCN1C(=O)CC[C@H]2CN(C(=O)Cn3ccc(=O)[nH]c3=O)CC[C@H]21 | i
O=C(CC1=CCCCC1)N1CC(F)(F)C[C@H]1c1nc(C2CC2)no1 | i
Cc1nc([C@@H]2CN(C(=O)c3ccc(Cn4ccnc4)o3)C[C@H]2C(N)=O)n[nH]1 | i
CC(=O)OCC(CCn1cnc2cnc(N)nc21)COC(C)=O | i
O=C1c2ccccc2C(=O)c2cc(S(=O)(=O)N(CCO)CCO)ccc21 | +
CC(C)CCn1c(=O)c2ccc(C(=O)NCC(C)C)cc2n2c(=O)n(Cc3ccc(F)cc3Cl)nc12 | i
Cc1ccc(S(=O)(=O)Nc2nc3ccc(C)cc3nc2Nc2ccc3c(c2)n(C)c(=O)n3C)cc1 | i
COC(=O)c1ccccc1C(=O)N1CCNC(=O)C1Cc1ccccc1 (centres undefined) | i
CC1(c2noc(C3CC3)n2)CCN(C(=O)CCCc2nc3ccccc3s2)CC1 | i
CS(=O)(=O)N1CC(F)(F)C[C@H]1c1nc(C2CC2)no1 | i
CC1(C)CCC(c2ccc(Cl)cc2)=C(CN2CCN(c3ccc(C(=O)NS(=O)(=O)c4ccc(N[C@H](CCN5CCOCC5)CSc5ccccc5)c(S(=O)(=O)C(F)(F)F)c4)cc3)CC2)C1 | +
Cc1ccc(CN2C(=O)c3ccccc3CC2(C)C(=O)NC2CCC(C)CC2)cc1 (centres undefined) | i
Cc1ccsc1CN1CCCC(O)(CN(C)C)C1 (centres undefined) | i
S=C(S)OC1CC2CC1C1CCCC21 (centres undefined) | i
COc1ccc(OC)c(CN2C(=O)c3nc4ccccc4n3CC2(C)C(=O)NCc2ccccc2)c1 (centres undefined) | i
COCCNC(=O)C1CC(c2ccccc2)CN(C(=O)NCc2ccccc2)C1 (centres undefined) | i
COc1ncccc1-c1cc2c(nc1OC)nc(CCc1ccccc1)n2C | i
O=C(NCCO)c1cccc(-c2cc(Nc3ccc(OC(F)(F)F)cc3)ncn2)c1 | i
Cc1nc(C(=O)N2CCC[C@H]2Cc2nnc(-c3ccccc3)o2)c(-c2ccccc2F)s1 | i
CCC(C)NC(=O)c1ccc2c(=O)n(C(C)C)c3n[nH]c(=O)n3c2c1 (centres undefined) | i
CCCn1c(=O)c2ccccc2n2c(SCC(=O)NC(C)C)nnc12 | i
O=S(=O)(Nc1ccc(F)cc1)c1ccc2[nH]c3c(c2c1)CCCC3 | i
COc1ccc(OC)c2c1cc1n2CC(C)(C(=O)NC2CCCCC2)N(Cc2ccc(C)cc2)C1=O (centres undefined) | i
COc1ccc(OC)c(S(=O)(=O)N2CCCC(Cc3ncc(C)n3CC3CC3)C2)c1 (centres undefined) | i
O=c1c2ccccc2n2c(=O)n(Cc3ccc(F)cc3)nc2n1Cc1ccc(F)cc1 | i
O=C1NCC2(CCCN(C(=O)c3cnc4c(O)cccn4c3=O)C2)O1 (centres undefined) | u
COCC1CN(C)CC12CCN(C(=O)COc1cccc(C)c1)CC2 (centres undefined) | i
COCCOCC(=O)N1CCC(N2C[C@H](OC)[C@@H]2c2cccnc2)CC1 | i
CCN1CCN(Cc2ccc(NC(=O)Nc3ccc(Oc4cc(NC)ncn4)cc3)cc2C(F)(F)F)CC1 | +
CCCSCCCN1C(=O)c2cc3sccc3n2CC1(C)C(=O)NC1CCC(C)CC1 (centres undefined) | i
C=C1CCC2[C@](C)(CCC[C@]2(C)C(=O)O)[C@H]1CC/C(C)=C/C(=O)OC (some centres undefined) | i
C[C@@H]1O[C@@H](OC[C@H]2O[C@@H](OCC3CCC4CC3C4(C)C)[C@H](O)[C@@H](O)[C@@H]2O)[C@H](O)[C@H](O)[C@H]1O (some centres undefined) | i
COC(=O)c1cc2n(n1)CC(C)(C(=O)NC1CCCCCC1)N(c1cccc(C)c1C)C2=O (centres undefined) | i
O=C1CC(C(=O)O)C2(CCN(c3cc(C(=O)O)c4ccccc4n3)CC2)N1 (centres undefined) | i
CC1(C(=O)NCc2ccccc2)Cn2cnc(C(=O)NCc3cccnc3)c2C(=O)N1C1CC1 (centres undefined) | i
CC(=O)N1CCCN(Cc2nnc(C(=O)N3CCC[C@@H]3C(c3ccccc3)c3ccccc3)n2-c2ccccc2)CC1 | i
O=C(O)CCc1cccc(O[C@@H]2O[C@H](CO)[C@@H](O)[C@H](O)[C@H]2O)c1O | +
COC(=O)/C=C/C(=O)N(O)CCCCNCc1ccc(COC(=O)Nc2cccc3ccccc23)cc1 | i
CCOc1ccc(CN2C(=O)c3cc4ccccc4n3CC2(C)C(=O)NCc2ccccc2)cc1OC (centres undefined) | i
Cc1nn(C)cc1CN1CCC(O)(c2ccccc2)[C@H](N2CCCC2)C1 (some centres undefined) | i
CCc1cc2c(cc3n2CC(C)(C(=O)NC2CCCCC2)N(Cc2cccs2)C3=O)s1 (centres undefined) | i
C[C@]1(O)CCN(C(=O)c2cc(-c3ccsc3)n[nH]2)C[C@@H]1O | i
Cn1cc(CCC(=O)N[C@@H]2CCOC[C@H]2Oc2ccc(C(=O)O)cc2)cn1 | i
Clc1ccc(Cn2c(Cc3ccccc3)nc3ccccc32)cc1 | +
CCOc1ccc(CNC(=O)c2cc3n(n2)CC(C)(C(=O)NC2CCCC2)N(CC)C3=O)cc1 (centres undefined) | i
CCCC(C)N1CC2(CCN(C(=O)c3ccc(C(C)=O)s3)CC2)OC1=O (centres undefined) | i
CC(=O)/C=C/[C@H]1[C@](C)(O)[C@@H](O)[C@H](OC(C)=O)C2C(C)(C)CCC[C@@]21C (some centres undefined) | i
CCNc1ncc(C(=O)N[C@H](C2CCNCC2)C2CC(O)C2)cn1 (some centres undefined) | i
CCCCNC(=O)c1ccc2c(=O)nc3c(-c4ccccc4F)n[nH]n3c2c1 | i
COc1ccc(N2C(=O)c3cc4occc4n3CC2(C)C(=O)NC2CCCCCCC2)cc1OC (centres undefined) | i
CC(C)NC(=O)c1cc2n(n1)CC(C)(C(=O)NC1CCCCCC1)N(C)C2=O (centres undefined) | i
COc1ccc(CNC(=O)CCn2ccc3cc(S(=O)(=O)N4CCCCC4)ccc32)cc1 | i
NC(=O)c1ccc(F)c2c1C[C@@H](N(C1CCC1)C1CCC1)CO2 | i
Cn1c([C@H]2CCN(Cc3ccc4c(c3)OCO4)C2)nc2ccccc21 | i
Cc1ccccc1CNC(=O)Cn1ccc2cc(S(=O)(=O)N3CCCC3)ccc21 | i

Continued:
compound | Methyltransferases
CCOC(=O)c1cc2n(n1)CC(C)(C(=O)NC1CCCCC1)N(Cc1ccc(OC)cc1)C2=O (centres undefined) | i
O=C(Nc1cn[nH]c1-c1nc2ccc(CN3CCOCC3)cc2[nH]1)NC1CC1 | u
C=C1CCC(OC(C)=O)C2(C)CC3(O)OC(=O)C(C)=C3CC12 (centres undefined) | i
CC(C)Oc1ccc(CN2C(=O)c3ccc(-c4ccco4)n3CC2(C)C(=O)NC2CCCCC2)cc1 (centres undefined) | i
CCn1c(-c2ccccc2)nn(CC(=O)NCc2ccsc2)c1=O | i
COc1ccccc1CNC(=O)C1(C)Cn2cnc(C(=O)NCc3cccc(C)c3)c2C(=O)N1C1CC1 (centres undefined) | i
COc1ccc(NC(=O)Cn2nc3n(Cc4ccc(F)cc4)c(=O)c4ccccc4n3c2=O)cc1 | i
Cn1c(=O)n(C)c2cc(S(=O)(=O)N3CCC(Cc4ccccc4)CC3)ccc21 | i
C/C(=C\C1CCC(C)C2CCC3(C)OC123)C(=O)O (centres undefined) | i
CCn1c2c(c(=O)n1-c1ccccc1)CCN(C(=O)C1CCC1)C2 | i
Cc1ccc(CCNC(=O)CCCn2ccc3cc(S(=O)(=O)N4CCCC4)ccc32)cc1 | i
CC(CNc1nc2c(S(=O)(=O)c3ccccc3)nnn2c2ccccc12)c1ccccc1 (centres undefined) | i
COC(=O)[C@@H](NC(=O)[C@H](CC(C)C)NC(=O)N(Cc1ccccc1)C[C@@H](O)[C@H](Cc1ccccc1)NC(=O)OC(C)(C)C)C(C)C | i
CCOc1ccc(S(=O)(=O)NCc2ccncc2)cc1 | i
COC(=O)c1cc2n(n1)CC(C)(C(=O)NC1CCC(C)CC1)N(Cc1cccc(C)c1)C2=O (centres undefined) | i
CC(C)NC(=O)c1ccc2c(=O)n(C(C)C)c3nn(CC(=O)NC4CCCCC4)c(=O)n3c2c1 | i

Six entries picked at random from those above:
compound | Methyltransferases
CC(C)NC(=O)c1ccc2c(=O)n(C(C)C)c3nn(CC(=O)NC4CCCCC4)c(=O)n3c2c1 | i
CC(CNc1nc2c(S(=O)(=O)c3ccccc3)nnn2c2ccccc12)c1ccccc1 (centres undefined) | i
C/C(=C\C1CCC(C)C2CCC3(C)OC123)C(=O)O (centres undefined) | i
COC(=O)c1cc2n(n1)CC(C)(C(=O)NC1CCC(C)CC1)N(Cc1cccc(C)c1)C2=O (centres undefined) | i
Cc1ccc(CCNC(=O)CCCn2ccc3cc(S(=O)(=O)N4CCCC4)ccc32)cc1 | i
CCn1c2c(c(=O)n1-c1ccccc1)CCN(C(=O)C1CCC1)C2 | i

(further entries)
compound | Methyltransferases
COc1cccc(Cn2nc3n(C(C)C)c(=O)c4ccc(C(=O)NC5CCCC5)cc4n3c2=O)c1 | i
CNC(=O)c1cc(C2CC2)nc2c1c(C1CCCN([S+](=O)([O-])c3c(C)noc3C)C1)nn2C (centres undefined) | i
C=C1C(=O)OC2/C=C(/C)C3=CC(=O)C(C)(CC(OC(=O)/C(C)=C/COC(C)=O)C12)O3 (centres undefined) | +
CC(C)Nc1cc(-c2c[nH]c(C(=O)N[C@H](CO)c3cccc(Cl)c3)c2)c(Cl)cn1 | u
C=C1CC[C@@]2(OC1)O[C@H]1CC3[C@@H]4CC=C5C[C@H](O[C@H]6OC[C@@H](O)C(O)[C@@H]6O[C@@H]6O[C@@H](C)[C@H](O)[C@@H](O[C@@H]7O[C@H](CO)[C@@H](O)[C@H](O)[C@H]7O)[C@H]6O)C[C@@H](O)[C@]5(C)C4CC[C@]3(C)[C@H]1[C@@H]2C (some centres undefined) | i
CN1C(=O)c2cc(C(=O)Nc3ccccc3Cl)nn2CC1(C)C(=O)NC1CCCCCC1 (centres undefined) | i
Cc1ccc(C(=O)N(Cc2ccco2)S(=O)(=O)c2ccc3c(c2)n(C)c(=O)n3C)cc1 | i
O=C([C@@H]1COCC(=O)N1Cc1ccccc1)N1CCN(Cc2ccc3c(c2)OCO3)CC1 | i
Cc1c(CN2CC[C@H]3CC[C@@H](C2)N3)c(=O)n(-c2ccccc2)n1C | i
Cc1ccc(NC(=O)CSc2nnc3n(CCCOC(C)C)c(=O)c4ccccc4n23)c(C)c1 | i
Cn1cc(CN2C[C@H](C(=O)NCc3ccccc3)C[C@H]2c2cccc(C(F)(F)F)c2)cn1 | i
CCN(CCCN1C(=O)c2cc3occc3n2CC1(C)C(=O)NC1CCCCC1)c1cccc(C)c1 (centres undefined) | i
CS(=O)(=O)Nc1ccc(OCC(=O)N2CCN(c3ccc(F)cc3)CC2)nc1 | i
O=c1cc(-c2ccccc2)oc2ccc(O)cc12 | u
CNC(=O)c1cc[nH]c1C1CCCN(C(=O)CCc2nc3ccccc3s2)C1 (centres undefined) | i
O=C(C1CCCC1)N1C[C@@H](COc2ccncc2)[C@H](c2ccccn2)C1 | i
COc1ccc(NC(=O)N2CCCC(Cc3noc(-c4ccncc4)n3)C2)cc1 (centres undefined) | i
CCc1nc2c(=O)n(CC(=O)NCc3ccco3)nc(C)c2s1 | i
